Screening results: PubChem, several laboratories
Sa ugtP lethal: growth inhibition of ugtP-null S. aureus, primary screen, RN4220 ugtP deletion, OD600; 16 h; some inactives read as strong as hits; growth inhibition, % (test concentration not listed); hit rate 0.54% among 330,000;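 active = z-score under -3 and OD600 up to 0.15 on both plates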;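 also: plate controls were untreated wells for no effect and antibiotic for full effect; wells of about 80 µL received 100 nL stock; the first replicate is given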
Autofluor counter: counter-screen for toxin protease inhibitors: compound fluorescence | hit rate 3.1% among 360,000 | fluorescence intensity (concentration not given with the values) | compound autofluorescence counterscreen, microsphere flow cytometry; active compounds read high | AID 624483;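 active = at least 3 SD above the mean of all compounds, about 16000 in these data; inconclusive = too few beads counted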;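 also: 100 nL of 1 mM stock went into each well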
BJeLR viability: MLPCN primary cell-based screen for lethality selective to Ras in HRASV12 cells; hit rate 0.17% among 300,000; AID 1554, 2009; inhibition, % (no concentration beside the values); BJeLR (HRASV12) viability, CellTiter-Glo ATP luminescence, 48 h; reference of the scale not given here;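 active = replicate mean above 50%; inconclusive = above 50% but judged a plate artefact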;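 also: 50 nL library stock added to about 25 µL; numbers are from one replicate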
PrP 5UTR inh: inhibition of PrP 5' UTR reporter expression | hit rate 0.35% among 340,000 | cell-based PrP 5' UTR mRNA reporter, plate reader | inhibition, % (test concentration not listed) | AID 488862, 2010;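 active = every replicate at 50% or more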;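 also: 0 = median of the neutral control wells; tested in H4 reporter cells; numbers are from one replicate; inactives centre near -14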
Mtb hypoxia rep: PubChem AID 1159583 | M. tuberculosis hypoxia-regulated fluorescent reporter, fluorescence | fluorescence inhibition, % (concentration not given with the values) | hit rate 0.1% among 300,000;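 active = 35 to 45% if threefold the growth effect, above 45% if 1.5-fold the growth effect; inactive = the rest, general growth blockers included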;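 also: wells of about 50 µL received 100 nL stock; 0% = vehicle wells and 100% = reference inhibitor wells; whole bacteria with a GFP reporter of the hypoxia response; strong numbers were not always called active; many hits fall short of the cut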
Sa RN4220 lethal: growth inhibition of S. aureus RN4220, primary screen, OD600; inhibition, % (no concentration beside the values); hit rate 0.33% among 330,000; 16 h;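 active = z-score of -3 or lower and OD600 up to 0.18 on both plates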;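 also: plate controls were untreated cells for no effect and reference antibiotic for full effect; stock transfer was 100 nL into about 80 µL; one replicate is shown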
Mtb hypoxia rep growth: second read-out of Mtb hypoxia rep, no call of its own (marks repeat the call); growth inhibition, %; measured here: M. tuberculosis growth (absorbance);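 0% = vehicle and 100% = reference antibiotic; read after six days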
Starred values were filed as active, the others as inactive; ? = inconclusive; / = not tested or not shown. Rows are unselected. About 4% of those tested had a hit in this group.

A first look (3 entries):
The line under a structure holds: Sa ugtP lethal | Autofluor counter | BJeLR viability | PrP 5UTR inh | Mtb hypoxia rep | Mtb hypoxia rep growth | Sa RN4220 lethal
Cc1ccc(C)c(/C(O)=C2\C(=O)C(=O)N(CCCn3ccnc3)C2c2cccnc2)c1 (configuration not stated)
→ / | 3712 | -9 | -6 | / | / | /
COc1ccccc1NC(=O)N1CCN(c2cc(-c3ccccc3)nc3ncnn23)CC1
→ -8 | 22826* | 4 | 1 | 1 | 0 | 1.0
COc1cc(NC(=O)c2cc(Cl)nnc2Cl)cc(OC)c1OC
→ 13 | 2550 | 11 | -7 | -7 | 2 | 5.0

The listing (from the top)
The line under a structure holds: Sa ugtP lethal | Autofluor counter | BJeLR viability | PrP 5UTR inh | Mtb hypoxia rep | Mtb hypoxia rep growth | Sa RN4220 lethal
Cc1ccc(C)c(/C(O)=C2\C(=O)C(=O)N(CCCn3ccnc3)C2c2cccnc2)c1 (configuration not stated)
→ / | 3712 | -9 | -6 | / | / | /
COc1ccccc1NC(=O)N1CCN(c2cc(-c3ccccc3)nc3ncnn23)CC1
→ -8 | 22826* | 4 | 1 | 1 | 0 | 1.0
COc1cc(NC(=O)c2cc(Cl)nnc2Cl)cc(OC)c1OC
→ 13 | 2550 | 11 | -7 | -7 | 2 | 5.0
COc1ccc(CNC(=O)c2cc3c(C)nc4ccccc4c3o2)c(OC)c1
→ -7 | 6017 | 7 | / | 3 | 7 | -6.4
COc1ccc(NC(=O)Cc2coc3cc(C)c(C(C)C)cc23)cc1S(=O)(=O)N1CCOCC1
→ -4 | 1912 | -12 | -10 | 15 | 7 | 5.0
COC(=O)N/N=C/c1ccc(-c2cccc(Cl)c2)o1
→ / | 2210 | -15 | -25 | / | / | /
Cc1c(C(=O)NC(C)CCc2ccccc2)cccc1[N+](=O)[O-] (configuration not stated)
→ -1 | 2951 | -11 | -37 | / | / | 1.2
Cc1ccc2nc(-c3ccccc3)cc(C(=O)NCC(c3ccco3)N(C)C)c2c1 (configuration not stated)
→ -2 | 7495 | 0 | -17 | 7 | 5 | 1.6
O=C(Cc1ccc([N+](=O)[O-])cc1)NN=Cc1ccco1
→ -2 | / | / | / | -1 | 6 | 2.5
CC(=O)c1cccc(NC(=O)CO/N=C2/CCCc3nonc32)c1
→ / | 4465 | 5 | -13 | / | / | /
N#Cc1c(Cl)cccc1Oc1ccc(S(=O)(=O)Nc2ccccc2)cc1
→ -17 | 6352 | 4 | 0 | -3 | -5 | 5.0
O=C1CC(c2ccco2)CC(O)=C1C=NCCO (configuration not stated)
→ 4 | 2854 | 0 | -7 | / | / | 0.1
Cc1cc(C)c(-c2cc(C(=O)Nc3cc(C)ccc3C)[nH]n2)c(O)c1
→ 6 | 3286 | -7 | -5 | 5 | -4 | 1.6
Cc1ccc(-n2cc(CNCCCn3ccnc3C)c(-c3ccc(F)cc3)n2)cc1
→ 2 | 4804 | -35 | -12 | 24 | 27 | 19
CC(C)N(Cc1nccn1C)C(=O)CC1C(=O)NCCN1Cc1ccc(F)cc1 (configuration not stated)
→ 3 | 5806 | -6 | -6 | 4 | -4 | -1.4
Cc1cccc(C(=O)Nc2ccc3ccccc3c2)c1
→ 2 | 3829 | 7 | -65 | 6 | -8 | -1.4
CCN1C(=O)/C(=C\N2CCN(c3ccccc3)CC2)SC1=S
→ / | 3040 | -2 | -19 | / | / | /
COc1ccc(CNC(=O)c2ccccc2NC(=O)C2=CSCCO2)c(OC)c1
→ 5 | 6016 | -12 | -21 | -6 | 3 | 7.1
OCCCn1c(-c2ccccc2)nc(=S)c2c1CCCC2
→ 1 | 21784* | -3 | -5 | 3 | 4 | 2.2
Cc1cc(C(=O)COC(=O)c2ccc[nH]c2=O)c(C)n1-c1ccccc1F
→ 16 | 4293 | -23 | 4 | 3 | 15 | 4.5
Cc1cc(C)n2nc(C(=O)N/N=C/c3ccco3)nc2n1
→ / | 5008 | 1 | -20 | / | / | /
COc1ccc2[nH]c3c(c2c1)CCN1C(=O)N([C@@H](C)C(=O)NCCc2ccc(OC)c(OC)c2)C(=O)[C@]31C
→ 5 | 4179 | 1 | -3 | / | / | 1.6
CC(CC(=O)Nc1ccc(N(C)C)cc1)=NNC(=O)c1ccc(Cl)cc1Cl
→ 7 | / | / | / | -5 | -10 | 3.9
O=C(CCCn1c(=O)[nH]c2ccsc2c1=O)NCc1cccs1
→ 3 | 4511 | -14 | -5 | 13 | 8 | 0.7
Cc1nc(N2CCN(C(=O)c3ccco3)CC2)c2c3c(sc2n1)CC(C)CC3 (configuration not stated)
→ -6 | 4420 | 0 | -25 | -13 | 8 | 1.5
COc1cccc(NC(=O)n2ncc3c(C)cccc32)c1
→ 19 | 3485 | 54* | 25 | -3 | 2 | -3.2
CCc1cccc(Nc2cnn(C34C[C@@H]5C[C@@H](CC(CC(=O)O)(C5)C3)C4)c(=O)c2Cl)c1
→ 12 | 3467 | 0 | 1 | 5 | 5 | -0.6
Cc1ccc(S(=O)(=O)N2CCN(C(=O)COC(=O)c3cc(C)oc3C)CC2)cc1
→ 9 | 4622 | -7 | -21 | / | / | -2.8
CC(=O)N(CC(=O)O)c1ccccc1
→ 5 | 2277 | 0 | 1 | 10 | 8 | 6.9
CCOC(=O)N1CCN(C(=O)c2ccc3c(c2)N(Cc2ccc(F)cc2)CCS3)CC1
→ -7 | 5961 | 7 | -9 | 0 | 2 | 6.9
COc1ccc(C2c3c(-c4ccccc4O)n[nH]c3C(=O)N2Cc2ccco2)cc1OC (configuration not stated)
→ 8 | / | -3 | 2 | 7 | 4 | 2.4
O=C(NC(=S)Nc1ccc(N2CCCCC2)cc1)c1ccc2c(c1)OCCO2
→ / | 2296 | 13 | -30 | / | / | /
O=C(NCc1ccccc1)c1cccc(COc2ccc3c(c2)CCC3)c1
→ 11 | 2431 | -10 | 3 | 3 | 6 | -3.0
Cn1c(=O)c2c(nc(N/N=C/c3c(O)n(-c4ccccc4)c(=S)[nH]c3=O)n2C)n(C)c1=O
→ -1 | 8834 | -12 | -14 | -1 | 7 | -3.3
Cc1ccccc1C(=O)NNC(=O)c1cc(N)cc([N+](=O)[O-])c1
→ -3 | 2455 | 3 | -9 | 4 | 1 | 3.2
COc1ccc2c(c1[N+](=O)[O-])CCC/C2=N/OC(=O)c1ccccc1SC
→ / | 2526 | 0 | -7 | / | / | /
CCC(=O)Nc1ccc(CCC(=O)N2CCCC2)cc1
→ 7 | 3154 | 0 | -11 | 4 | -2 | 5.8
COc1ccc(NS(=O)(=O)c2ccc3c(c2)[C@H]2C=CC[C@H]2[C@@H](c2ccc(C(=O)O)cc2)N3)cc1
→ / | 6000 | 6 | -15 | / | / | /
Cc1cc(Nc2nnnn2-c2ccccc2)n(-c2ccc(Cl)cc2)n1
→ 15 | 3496 | 6 | 0 | / | / | 11
CC(C)n1nnnc1-c1ccc(Cl)cc1
→ 7 | 2659 | 2 | -4 | 4 | 1 | 7.2
CC(=O)Nc1ccc(NC(=O)C(C)OC(=O)CC2CCCCC2)cc1 (configuration not stated)
→ 1 | 5980 | 1 | -38 | 11 | 1 | 2.9
O=C(Nc1cc(Cl)cc(Cl)c1)C1C2C=CC3(O2)C1C(=O)N(CCCN1CCOCC1)C3C(=O)NC1CCCCC1 (configuration not stated)
→ 1 | 3529 | -2 | -15 | 2 | 10 | 0.3
Cc1cc(C)nc(NS(=O)(=O)c2ccc(NC(=O)c3ccccc3C)cc2)n1
→ 14 | 4129 | 0 | -9 | 4 | -7 | 3.8
CCc1nnc(NC(=O)CS(=O)(=O)c2ccccc2)s1
→ 14 | 3602 | -1 | -11 | 6 | 8 | 1.7
CC(=O)c1ccccc1C(=O)N1CCCC(CCC(=O)N2CCN(c3ccccn3)CC2)C1 (configuration not stated)
→ 4 | 6001 | 0 | -11 | 1 | 3 | 1.4
O=C(COc1ccccc1[N+](=O)[O-])NN=Cc1cccs1
→ 4 | / | / | / | 10 | 2 | 7.3
Cc1cccc(-c2nnn3c2nc(NCCc2ccc(S(N)(=O)=O)cc2)c2ccccc23)c1
→ -12 | 7386 | 2 | -6 | -8 | -2 | -1.3
CCOC(=O)c1c(NC(=O)CN(C)C)sc(C(=O)N(CC)CC)c1C
→ 7 | 3998 | 0 | -11 | 19 | 11 | 5.3
CCN(CC(=O)Nc1c(F)cccc1F)C(=O)c1ccc(N2CCCC2=O)cc1
→ 8 | ? | 0 | -5 | 13 | 4 | -0.2
C=CCNC(=S)N/N=C/c1ccc(-c2cccc([N+](=O)[O-])c2)o1
→ / | 2215 | -5 | -7 | / | / | /
COc1c(O)cccc1/C=N/NC(=O)Cn1ccnc1C
→ / | 3458 | -7 | -4 | / | / | /
S=C(NCCc1ccccc1)Nc1ccccc1
→ 12 | 4035 | 16 | -28 | -9 | 6 | 5.8
O=S(=O)(CCN1CCCCC1)Oc1ccc(Cl)cc1Cl
→ 1 | 4225 | 0 | -7 | 8 | 9 | 6.7
Cc1ccc(Cl)c(NC(=O)CN2CCN(C=O)CC2)c1
→ 11 | / | 9 | / | 21 | 6 | 7.3
CCc1ccc2[nH]c(=O)c(-c3ccccc3)c(O)c2c1
→ 0 | 4033 | -20 | -81 | 23 | 33 | 5.4
CCc1nnc(SCC(=O)N2CCc3ccccc32)n1CC
→ 5 | 5407 | 0 | -12 | 7 | -16 | 1.2
CCc1nc2oc3ccccc3c(=O)c2cc1C(=O)OC
→ 2 | 3749 | 8 | -75 | 7 | 0 | 8.1
OCCNCc1ccc(-c2ccccc2)cc1
→ 0 | 2110 | -11 | -42 | 4 | 9 | 2.7
O=C(Nc1cccnc1)c1cc(-c2ccc(F)cc2)on1
→ 2 | 4563 | -3 | -13 | -10 | 4 | 4.5
O=C1C2C(c3ccccc3)(C(=O)N1c1ccc(Cl)cc1)C2(c1ccccc1)c1ccccc1 (configuration not stated)
→ -3 | 2537 | 3 | 3 | 10 | 10 | -8.9

More entries follow:
The line under a structure holds: Sa ugtP lethal | Autofluor counter | BJeLR viability | PrP 5UTR inh | Mtb hypoxia rep | Mtb hypoxia rep growth | Sa RN4220 lethal
CCC(=O)N1CCc2cc(S(=O)(=O)NC(C(=O)NC3CCCc4ccccc43)C(C)C)ccc21 (configuration not stated)
→ -3 | 7671 | 6 | -2 | 5 | 0 | 4.9
O=C(CC(c1ccccc1)c1ccccc1)Nc1ccc2c(c1)OCCO2
→ 22 | 4616 | 10 | -22 | / | / | -8.9
CC(C)(C)S(=O)N1Cc2cn(Cc3ccccc3)c(=O)cc2[C@@H]1CCO (some centres not stated)
→ 9 | 3061 | / | 5 | 0 | 0 | 4.4
COc1cc(Cl)c(CN2CCCC(CO)(Cc3ccccc3)C2)cc1OC (configuration not stated)
→ 6 | 5362 | -7 | -11 | -1 | 7 | 5.7
Cc1c(Cl)cccc1NC(=O)CCN1CCCCCC1
→ 3 | 8142 | -4 | -24 | 13 | 2 | -0.3
COc1ccccc1NC(=O)COn1nnc2ccc(S(=O)(=O)N3CCOCC3)cc21
→ -3 | 4178 | -3 | -12 | 4 | 2 | 7.7
Cc1nn(-c2ccccc2)c(C)c1/C=N/NC(=O)c1cc(-c2ccccc2)n[nH]1
→ / | 2980 | 35 | 66* | / | / | /
CCC(C)(C)n1nnnc1C(c1ccc2ncccc2c1)N1CCCCCC1 (configuration not stated)
→ 5 | 4698 | -7 | -13 | 4 | 8 | 5.7
O=C(NC(=S)Nc1ccccc1N1CCOCC1)c1cccc([N+](=O)[O-])c1
→ 20 | 6323 | -1 | -17 | 5 | 8 | 3.2
CCCc1c(C(=O)NN=C(C)CCc2ccc(OC)cc2)nnn1-c1nonc1N
→ 3 | / | / | / | 6 | 12 | 2.5
O=C(Cn1cnc([N+](=O)[O-])c1)c1ccc(Cl)cc1
→ -2 | 3827 | -2 | -20 | 4 | 7 | 4.8
Cc1c2cnn(CC(=O)NCCN3CCOCC3)c(=O)c2c(C)n1Cc1ccccc1
→ 3 | 5651 | 12 | -7 | 2 | 4 | 2.4
O=C(Cc1ccccc1F)N1CCN(CC(=O)N2CCCC2)CC1
→ -4 | 3457 | / | -19 | 6 | 2 | 4.4
CCC1CN(C(=O)N2CCC(C(=O)NCc3ccccc3C)CC2)c2ccccc2O1 (configuration not stated)
→ 6 | 5635 | -4 | -9 | 4 | 1 | 0.8
